Screens deposited in PubChem by ICCB-Longwood Screening Facility, Harvard Medical School.
MenB inh: blocks the Mycobacterium tuberculosis MenB enzyme | P9WNP5 | AID 540299 | MenB enzyme assay, absorbance read-out; some hits fall short of the stated cut | hit rate 0.43% among 100,000 | inhibition, %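 (about 12 µg/mL by stock and volumes)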;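 active = mean of two replicates above 30%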;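 note: 0% = no compound and 100% = wells with inactive enzyme; the first replicate is given; strong numbers were not always called active; inactives centre near -10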
MbtI inh: blocks the Mycobacterium tuberculosis siderophore enzyme MbtI. purified MbtI enzyme, fluorescence intensity read-out. inhibition, %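 (about 17 µg/mL by stock and volumes)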. hit rate 0.89% among 100,000. AID 493033;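 active = above 50% in both replicates, above 80% if mildly self-fluorescent; inactive = the rest, strongly fluorescent compounds included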;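 note: 0% = mean of negative and 100% = mean of positive controls; one replicate is shown; some compounds called inactive have numbers as strong as hits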
Target sequence (P9WFX0 whole entry, looked up): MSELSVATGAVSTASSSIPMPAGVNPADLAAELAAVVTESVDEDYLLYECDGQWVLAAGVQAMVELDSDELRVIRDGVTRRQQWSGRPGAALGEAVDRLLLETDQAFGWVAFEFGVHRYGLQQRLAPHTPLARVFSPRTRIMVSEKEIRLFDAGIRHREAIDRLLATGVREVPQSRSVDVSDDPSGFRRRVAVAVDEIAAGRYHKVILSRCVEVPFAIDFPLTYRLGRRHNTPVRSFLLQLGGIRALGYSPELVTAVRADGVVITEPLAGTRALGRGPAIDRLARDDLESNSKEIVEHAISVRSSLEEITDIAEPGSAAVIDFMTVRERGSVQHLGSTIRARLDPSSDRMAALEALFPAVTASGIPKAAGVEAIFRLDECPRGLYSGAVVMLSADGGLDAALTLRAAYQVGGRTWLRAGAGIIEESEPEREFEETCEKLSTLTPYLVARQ
PV pol inh: poliovirus RNA polymerase inhibition. P03300. poliovirus polymerase elongation, fluorescence polarization; active compounds read low. % elongation, % (compound at 16.7 µg/mL). hit rate 0.66% among 150,000; in the data active = % elongation below about 90%; note: some results filed as inactive read as strong as hits
Target sequence (P03300 1749-2209 limits assumed): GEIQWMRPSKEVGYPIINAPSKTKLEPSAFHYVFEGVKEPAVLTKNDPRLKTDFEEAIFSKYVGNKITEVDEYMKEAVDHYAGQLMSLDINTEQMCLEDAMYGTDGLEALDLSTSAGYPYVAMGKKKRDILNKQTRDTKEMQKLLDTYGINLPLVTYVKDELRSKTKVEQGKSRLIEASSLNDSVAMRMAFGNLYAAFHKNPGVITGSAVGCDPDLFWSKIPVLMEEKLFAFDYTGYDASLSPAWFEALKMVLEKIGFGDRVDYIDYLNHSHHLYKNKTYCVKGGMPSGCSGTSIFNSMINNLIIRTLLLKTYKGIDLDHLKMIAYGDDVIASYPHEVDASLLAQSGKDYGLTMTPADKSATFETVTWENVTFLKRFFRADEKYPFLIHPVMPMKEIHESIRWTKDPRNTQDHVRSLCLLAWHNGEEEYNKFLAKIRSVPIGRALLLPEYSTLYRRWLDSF
PV pol inh intensity: second read-out of PV pol inh, no call of its own (marks repeat the call); % elongation; measured here: total intensity read-out; formula for this scale not given here;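 total fluorescence in place of polarization; lower means less elongation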
Active calls of the source: *; . = no result given.

entry	compound	MenB inh	MbtI inh	PV pol inh	PV pol inh intensity
1	N#C/C(=C\c1cccn1-c1ccc(Cl)cc1)C(=O)O	-5	0	100	102
2	CN1CCN(C(c2ccccc2)c2ccc(Cl)cc2)CC1 (stereo not drawn)	-1	-14	102	100
3	COC(=O)C(O)(c1cc(C)n(CC(C)C)c1C)C(F)(F)F (stereo not drawn)	-28	-10	111	124
4	CCN(CC)S(=O)(=O)c1ccc(=O)[nH]c1	12	-10	100	108
5	CCN(CC)N=Nc1ccc(S(=O)(=O)N=C(C)O)cc1	0	18	101	103
6	CC(C)C(=O)Nc1nn2c(-c3ccco3)nnc2s1	10	8	100	101
7	CCOC(=O)c1c(S(=O)(=O)N(C)Cc2ccccc2)c(C)n(C)c1C	3	-24	102	103
8	CCOC(=O)Cc1csc(SCC(=O)NC(C)(C)C)n1	-22	2	104	103
9	CCN(C(=O)c1cccs1)c1nnc(-c2cccc(C)c2)s1	-18	4	100	100
10	Cc1cc(Br)ccc1N1C(=O)CC(=O)NC1=S	-81	-2	101	95
11	O=C(CC1C(=O)N(c2ccccc2)C(=O)N1Cc1ccco1)Nc1ccccc1 (stereo not drawn)	-5	-12	103	103
12	CC1(C)NCCNC1=O	-7	4	101	100
13	FC(F)(F)c1cnc(NNC(=S)NCC2CCCO2)c(Cl)c1 (stereo not drawn)	2	3	106	109
14	CCOC(=O)C(C#N)C(c1cccnc1)c1[nH]c(C)nc1O (stereo not drawn)	1	.	104	103
15	Cc1cc(C(=O)OCC(=O)NC2CCCC(C)C2C)c(C)o1 (stereo not drawn)	.	-14	97	95
16	CCC(C(=O)N1c2ccccc2Sc2ccc(C(F)(F)F)cc21)N1C(=O)c2ccccc2C1=O (stereo not drawn)	7	3	102	97
17	COCc1cc(=O)[nH]c(SCC(=O)Nc2cc(C)cc(C)c2)n1	12	5	101	103
18	CN(C(=O)Nc1ccccc1)C12CC3CC(CC(C3)C1)C2	-3	-17	102	102
19	Cc1c(C(=O)O)oc2ccc(S(=O)(=O)NCCC(C)C)cc12	-23	-9	100	101
20	Cc1ccc(NC(=O)C/C(N)=N/OCc2ccc(C#N)cc2)cc1	13	2	106	98

More results follow.
entry	compound	MenB inh	MbtI inh	PV pol inh	PV pol inh intensity
21	CNC(=S)N/N=C/c1ccc(C(C)C)cc1	-22	6	100	103
22	COC(=O)c1cc2c(s1)CCC2	.	-2	101	102
23	CC1(C)Oc2ccccc2OC1(O)c1ccc2ccccc2n1 (stereo not drawn)	-12	1	100	107
24	Cc1ccnc(Nc2nc3ccccc3s2)n1	-7	.	102	107
25	O=C(Cc1cccs1)Nc1nnc(C2CC2)s1	-11	-2	101	112
26	Cn1nc(C(=O)NCCSc2n[nH]c(=O)[nH]c2=O)c2ccccc2c1=O	8	-5	105	106
27	CC(Nc1ccccc1)C(=O)Nc1ccc(F)cc1 (stereo not drawn)	-2	-12	102	108
28	Cc1noc(/C=C/N(C)C)c1S(=O)(=O)N1CCc2ccccc21	-29	-6	105	104
29	O=S(=O)(c1ccc(-c2cnco2)cc1)N(Cc1ccccn1)Cc1ccccn1	7	-11	98	94
30	CCOC(=O)CSc1nc2ccccc2n1C(=O)Nc1cccc(Cl)c1	-3	.	109	110
31	Cc1ccc(NC(=O)CCc2c(C)nc3c4c(C)cc(C)nc4nn3c2C)cc1	-7	18	101	102
32	CCN(Cc1ccccc1)C(=O)CS(=O)(=O)c1ccccc1	6	-1	98	99
33	Cc1ccc(-n2c(=O)c3sccc3n(CC(=O)NCC3CCCO3)c2=O)cc1F (stereo not drawn)	-2	-19	102	104
34	O=C(COC(=O)c1cnc(Cl)c(Cl)c1)NC1CC1	.	-5	104	106
35	CN(C)Cc1nc2ccccc2c(=O)n1CC#N	9	5	113	111
36	COc1ccc(/C=C/C(=O)CC(=O)c2ccccc2O)cc1	-82	-8	106	106
37	COc1ccccc1NC(=O)c1ccccc1C(=O)O	-20	-9	100	103
38	N#CC1=C(N)OC2=C(CC/C2=C/c2ccccc2)C1c1ccccc1 (stereo not drawn)	-30	14	75	192
39	CN(C)/C=N/C(=S)NC1CC2C=CC1C2 (stereo not drawn)	4	2	101	100
40	Cc1cccc(NC(=O)Cn2c(O)c(N=N)c3ccccc32)c1	3	9	103	101

The list continues:
entry	compound	MenB inh	MbtI inh	PV pol inh	PV pol inh intensity
41	COC(=O)c1ccccc1NC(=O)Cn1c(SC)c(F)cnc1=O	5	7	98	103
42	C#CCn1c(=NC(=O)c2ccc(N3C(=O)CCC3=O)cc2)sc2cc(Br)ccc21	8	1	96	101
43	O=C1CC(C(=O)NCc2ccc(F)cc2)C2=C(CCCC2=O)N1 (stereo not drawn)	-2	-5	103	106
44	O=C1C2CCCCC2=NN1c1ccccc1 (stereo not drawn)	-18	71*	101	96
45	COc1ccc(NC(=O)N=S2CCN(S(=O)(=O)c3ccc(Cl)cc3)CC2)cc1	-1	1	101	104
46	CSc1sc2ccccc2[n+]1C	.	18	104	101
47	O=S(=O)(NCc1ccncc1)c1ccc(C2CCCCC2)cc1	-36	-1	101	98
48	CC1CCCCN1C(=O)C1COc2ccccc2O1 (stereo not drawn)	-27	4	101	103
49	CCN1CCN(C(C)C(=O)NCc2ccc(OC)cc2)CC1 (stereo not drawn)	14	-1	100	102
50	C=CCN=C(SC)N1CCN(C(=NCC=C)SC)CC1	-13	.	104	108
51	Cn1c(/N=C(\C#N)c2nc3ccccc3[nH]2)c(N)c(=O)n(C)c1=O	-14	-23	99	96
52	Cc1ccc(Cn2c(=N)n(CC(=O)c3ccccc3)c3ccccc32)cc1	-31	35	103	100
53	CC(OC(=O)Cc1ccsc1)C(=O)Nc1ccc(C(N)=O)cc1 (stereo not drawn)	8	2	102	108
54	COCc1[nH]nc2c1C(c1ccccc1C(F)(F)F)C(C#N)=C(N)O2 (stereo not drawn)	6	1	103	101
55	CNS(=O)(=O)c1ccc(Cl)cc1	-12	-16	101	109
56	O=C(O)c1ccc(-c2nc3ccccc3s2)cc1	-10	-121	101	100
57	COc1ccc(C2N(C(C)=O)CCCN2S(=O)(=O)c2ccc(C)cc2)cc1 (stereo not drawn)	-7	-5	102	102
58	O=C(NCc1nc(-c2ccc(C(F)(F)F)cc2)no1)Nc1ccc(F)cc1F	-12	-6	102	103
59	CCOC(=O)Cc1csc(NC(=O)Cc2ccccc2)n1	15	4	101	102
60	Cc1sc2nc[nH]c(=S)c2c1-c1ccccc1	.	1	101	101

Compound profiles (already shown).
Profile of CC(OC(=O)Cc1ccsc1)C(=O)Nc1ccc(C(N)=O)cc1 (stereo not drawn) = MenB inh = 8; MbtI inh = 2; PV pol inh = 102; PV pol inh intensity = 108
Profile of CCN(C(=O)c1cccs1)c1nnc(-c2cccc(C)c2)s1 = MenB inh = -18; MbtI inh = 4; PV pol inh = 100; PV pol inh intensity = 100

Following part.
entry	compound	MenB inh	MbtI inh	PV pol inh	PV pol inh intensity
61	NN(CCO)C(=S)NCc1ccc(Cl)cc1	-11	1	104	92
62	C=C1N(Cc2ccccc2)C(=O)OC1(C)C	-9	.	103	105
63	O=C(Nc1ccc(N2CCOCC2)cc1)c1ccccc1	-9	0	99	103
64	Cc1nc2nncn2c(NCCC(C)C)c1C	9	-1	102	102
65	FC(F)Oc1ccc(C2N=C(c3ccccc3)NO2)cc1 (stereo not drawn)	-5	1	.	.
66	CC1(C)CC2=[N+]([O-])CN(O)C2C(C)(C)N1O (stereo not drawn)	11	-6	101	101
67	O=C(CCC(=O)N(Cc1ccccc1)Cc1ccccc1)Nc1ccc(F)cc1	-6	.	101	106
68	C=CCNC(=S)Nc1ccc(N2CCN(c3ccc(C(F)(F)F)cn3)CC2)nc1	-3	-12	102	105
69	O=C(O)CCn1nc(Nc2ccccc2)n(-c2ccccc2)c1=S	-1	-1	105	94
70	Cc1ccccc1OCC(=O)N(Cc1nnc(-c2ccc(Cl)cc2)o1)C(C)C	-33	1	103	101
71	CN1CCCN(C(=O)Cc2cccs2)CC1	5	-11	101	104
72	Cc1cc(N2CCOCC2)nc2ccc(NC(=S)N3CC(C)CC(C)C3)cc12 (stereo not drawn)	-40	-14	102	101
73	COC1=CC(=O)CC(C)C12Oc1c(Cl)c(OC)cc(OC)c1C2=O (stereo not drawn)	-15	86	102	104
74	O=C(c1ccccc1)n1ccc2ccccc21	-19	-4	104	107
75	Cc1c2cnn(-c3ccccc3)c(=O)c2c(C)n1CCCC(=O)NCCc1ccccc1	-14	-2	104	105
76	COc1ccc(C(=O)NCc2ccc(-c3nc4ncccc4o3)cc2)c(OC)c1	12	40	89	120
77	CNC(=O)c1nn(-c2ccccc2)nc1CO	-7	119	103	102
78	CCC(C)NC(=O)CN1N=C(c2ccc(Cl)cc2)CCC1=O (stereo not drawn)	-21	-17	102	103
79	CCN(C(=O)COc1ccc(Br)cc1F)C1CCS(=O)(=O)C1 (stereo not drawn)	-2	-11	102	107
80	O=C(NNc1ncnc2ccccc12)c1ccc(Br)cc1	-25	6	101	103
81	CCN(CC)C(=O)CSc1ccc(S(=O)(=O)N2CCN(C)CC2)cn1	0	1	103	91
82	Cc1cc(NCCc2ccccc2)n2ncnc2n1	-18	3	101	102
83	O=C(c1cnn(-c2ccccc2)c1-n1cccc1)N1CCC2(CC1)OCCO2	7	-2	103	98

Rewritten in transposed form: part of the list above
62) C=C1N(Cc2ccccc2)C(=O)OC1(C)C
63) O=C(Nc1ccc(N2CCOCC2)cc1)c1ccccc1
64) Cc1nc2nncn2c(NCCC(C)C)c1C
65) FC(F)Oc1ccc(C2N=C(c3ccccc3)NO2)cc1 (stereo not drawn)
66) CC1(C)CC2=[N+]([O-])CN(O)C2C(C)(C)N1O (stereo not drawn)
67) O=C(CCC(=O)N(Cc1ccccc1)Cc1ccccc1)Nc1ccc(F)cc1
68) C=CCNC(=S)Nc1ccc(N2CCN(c3ccc(C(F)(F)F)cn3)CC2)nc1
69) O=C(O)CCn1nc(Nc2ccccc2)n(-c2ccccc2)c1=S

screen / no.,62,63,64,65,66,67,68,69
MenB inh,-9,-9,9,-5,11,-6,-3,-1
MbtI inh,.,0,-1,1,-6,.,-12,-1
PV pol inh,103,99,102,.,101,101,102,105
PV pol inh intensity,105,103,102,.,101,106,105,94

70) Cc1ccccc1OCC(=O)N(Cc1nnc(-c2ccc(Cl)cc2)o1)C(C)C
71) CN1CCCN(C(=O)Cc2cccs2)CC1
72) Cc1cc(N2CCOCC2)nc2ccc(NC(=S)N3CC(C)CC(C)C3)cc12 (stereo not drawn)
73) COC1=CC(=O)CC(C)C12Oc1c(Cl)c(OC)cc(OC)c1C2=O (stereo not drawn)
74) O=C(c1ccccc1)n1ccc2ccccc21
75) Cc1c2cnn(-c3ccccc3)c(=O)c2c(C)n1CCCC(=O)NCCc1ccccc1
76) COc1ccc(C(=O)NCc2ccc(-c3nc4ncccc4o3)cc2)c(OC)c1
77) CNC(=O)c1nn(-c2ccccc2)nc1CO

screen / no.,70,71,72,73,74,75,76,77
MenB inh,-33,5,-40,-15,-19,-14,12,-7
MbtI inh,1,-11,-14,86,-4,-2,40,119
PV pol inh,103,101,102,102,104,104,89,103
PV pol inh intensity,101,104,101,104,107,105,120,102

78) CCC(C)NC(=O)CN1N=C(c2ccc(Cl)cc2)CCC1=O (stereo not drawn)
79) CCN(C(=O)COc1ccc(Br)cc1F)C1CCS(=O)(=O)C1 (stereo not drawn)
80) O=C(NNc1ncnc2ccccc12)c1ccc(Br)cc1
81) CCN(CC)C(=O)CSc1ccc(S(=O)(=O)N2CCN(C)CC2)cn1

screen / no.,78,79,80,81
MenB inh,-21,-2,-25,0
MbtI inh,-17,-11,6,1
PV pol inh,102,102,101,103
PV pol inh intensity,103,107,103,91
